Screens deposited in PubChem by Fisher Drug Discovery Resource Center.
NPYLR7 ag = agonists of mosquito NPYLR7 receptor, primary screen, cell-based, Aedes aegypti, calcium fluorescence, mosquito biting behavior; Aedes aegypti neuropeptide Y-like receptor 7 (NPYLR7); HEK293T NPYLR7/Galpha15, GCaMP6s calcium fluorescence; activation, % at 10 µM; 270,000 compounds, 0.15% hits; AID 1259423, 2018; in the data active = activation above about 40%;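 note: 0% = vehicle and 100% = reference agonist at the receptor; some compounds past the cut are filed as inactive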
NPYLR7 ag max-min = further read-out of NPYLR7 ag, marked with its call; activation, %; measured here: Max-Min RFU normalised activation; some inactives read as strong as hits;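 span of the calcium signal over five minutes; 0% = vehicle and 100% = native peptide agonist; compound fluorescence can raise it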
* = called active by the depositor; & = joins results of further samples. A portion of the library. The share of hits here may be higher or lower than overall.

Results follow in this order: NPYLR7 ag	NPYLR7 ag max-min
COc1cc(N)c(Cl)cc1C(=O)CCC1CCN(CCNS(C)(=O)=O)CC1
→ -12.0	-15.4
COCCN(CC(=O)N(Cc1ccc(F)cc1)Cc1ccco1)C(=O)N(C)C
→ -9.3	-2.5
O=C(Cc1ccc(S(=O)(=O)N2CCOCC2)s1)Nc1nc2c(s1)CCCC2
→ 17.0	15.5
Cc1cc(C)n(CCNC(=O)c2cccc3ccnn23)c(=O)n1
→ 17.5	7.0
CCOC(=O)C1C(=O)C=C(c2cccs2)CC1c1cccc(F)c1 (centres undefined)
→ 11.5	14.3
O=C(Nc1cccc2cnccc12)OCC(F)(F)F
→ -1.3	-1.8
CC(C)(C)c1cc(NC(=O)CCc2ccccc2)n(-c2ccccc2Cl)n1
→ 34.7	38.6
CCc1cccc2c(C(CC(=O)NCCc3ccccc3)c3ccc(OC)cc3OC)c[nH]c12 (centres undefined)
→ 10.8	13.5
CN1CCc2nc(C(=O)N[C@@H]3C[C@@H](C(=O)N(C)C)CC[C@@H]3NC(=O)C(=O)Nc3ccc(Cl)cn3)sc2C1
→ 0.5	0.4
Cc1nn(-c2ccc(F)cc2)c2nc(CCC(C)C)nc(N3CCCN(C(=O)C(Cl)c4ccccc4)CC3)c12 (centres undefined)
→ -5.4	2.1
Nc1nc(COC(=O)c2c(F)cccc2F)nc(Nc2ccccc2)n1
→ -5.9	-7.5
Cc1cc(C)n(Cc2cc(C(=O)N3CCCC3CCc3ccccc3)n[nH]2)n1 (centres undefined)
→ 1.3	-1.3
COc1ccc(C(=O)NCCN=C2NS(=O)(=O)c3ccccc32)cc1OC
→ -0.9	-0.4
CCN(CC)c1nc(Nc2ccc([N+](=O)[O-])cc2)nc(N(CC)CC)n1
→ -0.8	-8.7
Cc1cc(C(=O)N(Cc2cccnc2)CC2CCN(Cc3ccccc3C)CC2)n[nH]1
→ 5.9	1.2
CC(C)CN(CC(C)C)Cn1[nH]c(-c2cccs2)nc1=S
→ -7.2&0.1	-10.2&26.1
CC(C)CCNC(=O)CN1C(=O)NC2(CCCCC2)C1=O
→ 7.8	2.7
CCOC(=O)CN(Cc1cccc(OC)c1)[C@@H]1C[C@@H]2CO[C@H](C(C)C)C[C@@H]2C1
→ 0.5	11.9
NC(=O)C1CCN(S(=O)(=O)c2ccc(N3C(=O)CCS3(=O)=O)cc2)CC1
→ -7.1	-10.6
COCC(=O)N1CCN(C(C)=O)C[C@@H]1C(=O)N[C@H](C)C(=O)OC
→ -9.0	-15.2
CCOC(=O)c1cc([C@@H](C)CCC=C(C)C)sc1NC(=O)c1cc(C)oc1C
→ 15.3	7.6
COc1ccc(-c2csc(-n3[nH]c(-c4ccccc4)c(N=Nc4ccccc4Cl)c3=O)n2)cc1
→ -6.0	-12.3
Cc1ccc(S(=O)(=O)c2c(C)nn(C(C)(C)C)c2OC(=O)c2ccc([N+](=O)[O-])cc2)cc1
→ 0.3	19.2
CCc1nc2ccc(C(=O)Nc3ccc(C(N)=O)cc3)cn2c1N(CC)Cc1cccc(Br)c1
→ 13.7	11.4
CN(C(=O)CC(C)(C)C)c1nc(CNC(=O)CC(C)(C)C)cs1
→ -1.8	-1.8
CCn1c(C)cc(O)c(C(c2ccc(C)cc2)N2CCN(CCO)CC2)c1=O (centres undefined)
→ 7.5	4.1
Cc1cc(C)c(CN(Cc2cnn(C)c2)CC(C)C)c(C)c1CO
→ 1.0	0.4
Cc1noc2nc(C3CC3)cc(C(=O)N3CCCC(N(C)C)CC3)c12 (centres undefined)
→ 4.1	4.8
COc1ccc2c(C)c(C(=O)O)oc2c1C
→ -3.8	3.1
CCCCCCc1ccc(C(=O)NCc2nnc(SCc3cccc(OC)c3)n2-c2ccc(Cl)cc2Cl)cc1
→ -1.2	3.8
Cc1n[nH]c(C)c1Sc1n[nH]c(=O)[nH]c1=O
→ 5.8	-4.2
Cc1ccc(S(=O)(=O)NCc2ccc(C(=O)O)cc2)s1
→ 2.6	1.1
CCOC(=O)c1cnc(-c2ccccc2)nc1NCCCN1CCOCC1
→ -6.6	-11.8
COc1ccccc1N1CCN(C(=O)Cn2ccn3nc(-c4ccc(C)cc4)cc3c2=O)CC1
→ 6.1	4.8
O=C(Cc1ccccc1)NC(CCC(=O)OCc1ccccc1)C(=O)NCc1ccccc1 (centres undefined)
→ -1.7	-5.0
O=C(NCC12CC3CC(CC(C3)C1)C2)C1CCCC1
→ 1.2	4.4
Cc1nnc(-c2cc3ccccc3n2Cc2cccc3ccccc23)o1
→ -10.8	-6.8
Cc1noc(-c2ccccc2)c1NC(=O)Nc1cccc2[nH]c(COCCO)nc12
→ 15.3	12.8
CC1CCC(NC(=O)c2cc(Br)cnc2N2CCCCC2)CC1 (centres undefined)
→ -0.8	-0.4
CCn1cc(NC(=O)NCc2ccccc2OC)cn1
→ -0.6	-2.5
NC(=O)C1CCN(c2ccc3cc(Br)ccc3n2)C1 (centres undefined)
→ -5.0	-5.4
COc1nn(C)cc1C(=O)N1CCCCC1
→ 2.4	4.3
COC(=O)c1cc2n(n1)CCN(Cc1cnn(-c3ccccc3)c1C)C2
→ -5.8	-9.8
C=C(C)Cn1c(SCC(=O)N/N=C\c2ccccc2[N+](=O)[O-])nnc1-c1ccc(Br)cc1
→ -8.4	-13.5
CCCCC(=O)N1CCN(c2cc(Cl)nc(SCC(=O)NCCc3ccccn3)n2)CC1C (centres undefined)
→ 14.2	18.1
COCCN1Cc2cc(OC)ccc2N([C@@H]2CCCC[C@H]2O)CCC1=O
→ -1.9	1.8
Cc1nc2scc(C)n2c(=O)c1NC(=O)COc1ccccc1
→ 12.3	0.7
CC(C)CNC(=O)c1ccc2c(c1)S(=O)(=O)N=C1CCCCCN12
→ 3.4	1.9
CCOC(=O)c1ccc(Nc2nnc(-c3cc4cccc(OCC)c4oc3=O)s2)cc1
→ -11.4	-20.0
CC(C)(C)c1ccc2c(c1)CC(CNC(=O)c1cccnc1Cl)O2 (centres undefined)
→ 8.5	21.8

Whole records, looked up by structure. Order of screens: NPYLR7 ag	NPYLR7 ag max-min
NC(=O)C1CCN(c2ccc3cc(Br)ccc3n2)C1 (centres undefined) as listed: -5.0	-5.4
CC(C)CNC(=O)c1ccc2c(c1)S(=O)(=O)N=C1CCCCCN12 as listed: 3.4	1.9

Further results.
Results follow in this order: NPYLR7 ag	NPYLR7 ag max-min
Cc1cc(C)nc(SC(C)c2n[nH]c(Cc3ccccc3)n2)n1 (centres undefined)
→ 19.5	4.9
CC(C)=NOC(C)C(=O)N1CCc2ncn3nc(C)nc3c2C1 (centres undefined)
→ 0.6	-0.5
CCC(c1cccnc1)N(C)C(=O)c1ccc2c(c1)N(C)C(=O)CO2 (centres undefined)
→ -0.4	-0.9
CC(C)(C)n1nc2c(c1NC(=O)COc1ccc(Cl)cc1)CSC2
→ -0.1	-1.2
CN1C[C@@H](N)C[C@H]1C(=O)NCCSc1cn[nH]n1
→ 7.3	-3.1
COC(=O)c1cnc(NC(=O)C2(C)CCCN(C)C2)s1 (centres undefined)
→ 0.0	-0.6
CCc1csc(CNC(=O)c2ccc(N(C)Cc3ccn[nH]3)nc2)n1
→ 1.2	1.1
COc1ccc(CNc2nc3c(-c4ccc(C)cc4)nnn3c3ccccc23)cc1
→ 15.8	12.1
Cc1ccc(CNc2nc3c(s2)CCCC3)cc1
→ 6.6	1.0
COc1ccc(-n2nnc3c(=O)n(Cc4ccccc4)cnc32)cc1
→ 6.2	4.8

Another view of some results above.
Cc1cc(C)nc(SC(C)c2n[nH]c(Cc3ccccc3)n2)n1 (centres undefined)
- NPYLR7 ag: 19.5
- NPYLR7 ag max-min: 4.9
CCc1csc(CNC(=O)c2ccc(N(C)Cc3ccn[nH]3)nc2)n1
- NPYLR7 ag: 1.2
- NPYLR7 ag max-min: 1.1
CCC(c1cccnc1)N(C)C(=O)c1ccc2c(c1)N(C)C(=O)CO2 (centres undefined)
- NPYLR7 ag: -0.4
- NPYLR7 ag max-min: -0.9
Cc1ccc(CNc2nc3c(s2)CCCC3)cc1
- NPYLR7 ag: 6.6
- NPYLR7 ag max-min: 1.0

Later entries.
Results follow in this order: NPYLR7 ag	NPYLR7 ag max-min
CCc1nc(-c2nccn2-c2ccc(OC)c(Cl)c2)c(C)[nH]1
→ 7.2	2.8
CC(C)Oc1ccc(CNC(=O)c2cc(Cl)ccc2F)cn1
→ 2.1	1.6
CCOC(=O)[C@H]1C[C@@H]2O[C@H]1[C@H]1CN(C(=O)c3ccccc3)C[C@H]1[C@@H]2O
→ -5.9	-2.7
COc1ccc(S(=O)(=O)NCCNc2ccc(Nc3cccnc3)nn2)cc1OC
→ 0.5	-0.1
O=C(NC(c1ccc(F)cc1)c1cnccn1)C1CCN(C(=O)c2ccc3nccnc3c2)CC1 (centres undefined)
→ -12.9	-14.8
CC(C)NC(=O)Nc1nnc([C@@H]2C[C@H](O)[C@@H](CO)O2)s1
→ -4.9	-5.7
CC(C)c1cc(-c2ccc(C(N)=O)cc2)nc(C(F)(F)F)n1
→ 1.3	-1.3
COc1ccc(C(CC(=O)c2ccc(F)cc2)Cc2onc(C)c2[N+](=O)[O-])cc1 (centres undefined)
→ 2.2	0.7
CCCC1(CCC)NC(=O)N(CC(=O)Nc2nc(-c3cccc4ccccc34)cs2)C1=O
→ 1.5	2.0
Cc1ccc(O)c(CN2CCN(Cc3ccco3)C(CCO)C2)n1 (centres undefined)
→ 2.2	0.8
Cc1ccc(C(=O)Cn2cnc3c(cnn3C3CCS(=O)(=O)C3)c2=O)c(C)c1 (centres undefined)
→ 11.2	5.7
CC(=O)N1CCN(c2ncccc2CNc2ccc(-c3ccccc3)nn2)CC1
→ 15.7	4.6
CCCCCCC(=O)N1CCN(c2nc(-c3ccc(Cl)cc3)nc(C)c2Cc2ccccc2)CC1
→ -3.8	1.8
Cc1c(NC(=O)c2ccccc2-n2cncn2)cccc1C(=O)NC(C)(C)C
→ 20.6	13.7
CCC/C=C/c1ccc(NC(C)=O)nc1
→ -0.8	-4.3
C=CCN(C(=O)CSc1nnnn1-c1ccccc1C)c1ccccc1
→ 0.0	10.6
O=c1cccnn1CCNS(=O)(=O)c1ccccc1C(F)(F)F
→ -1.2	-3.1
C=CCCC(=O)N1CCC(c2nc(-c3ccc(Cl)cc3F)no2)CC1
→ 2.0	-2.2
CC1c2cccn2CCN1S(=O)(=O)c1ccc(Cl)cc1 (centres undefined)
→ 5.9	8.0
CCCN=C(NC(=O)c1ccc(OC)cc1)OC
→ 14.6	11.1
COc1ccc(-c2cn[nH]c2-c2ccc(OCCN3CCC(C(N)=O)CC3)c(C)c2O)cc1
→ 3.1	0.7
CC(=O)Nc1cccc(Nc2cc3c(cn2)ncn3CC2CC2)c1
→ -7.8	-0.1
CCc1ccc(C(O)c2ccccc2C(=O)O)s1 (centres undefined)
→ 11.4	11.7
NC(=O)CCSCc1cc(Br)ccc1F
→ 7.4	3.3
N#Cc1nc(NC(=O)C2CC2c2ccc(Br)cc2)[nH]c1C#N (centres undefined)
→ -3.7	-4.9
COc1ccc(-c2c3c(nc4sc(C(=O)N5CCOCC5)c(N)c24)CC(C)(C)CC3=O)cc1
→ 6.0	9.3
N#CC(c1ccccn1)c1cc(N2CCN(C(=O)c3cc(F)cc(F)c3)CC2)ncn1 (centres undefined)
→ -2.2	-5.0
CCN(Cc1ccncc1)C(=O)c1ccc(-c2ccc(F)c(F)c2)s1
→ 23.0	31.5
O=S(=O)(NCCNc1nc(Cc2ccccc2)nc2cc(Cl)ccc12)c1cccc(C(F)(F)F)c1
→ 1.4	9.0
Cc1ccc(C(C)CCN2CCN(Cc3cccc(F)c3)C(=O)C2)o1 (centres undefined)
→ 6.2	3.9
CCC1=C(C(=O)NC2CCC(O)CC2)Cc2ccccc2O1 (centres undefined)
→ -4.2	-4.1
O=C(Nc1cccc2c1OCCO2)N1CCCCCC1c1ccncc1 (centres undefined)
→ 3.2	7.1
Cc1nnsc1CNC(=O)c1ccc(CSc2ccccn2)cc1
→ 12.8	6.2
Cc1ccc(-n2nnnc2NC(C)CCc2ccco2)cc1 (centres undefined)
→ -4.0	-4.9
CC(CNc1ccccc1)NC(=O)CNC(=O)c1ccsc1 (centres undefined)
→ -0.7	-0.7
CCc1sc(C(=O)N2CCN(S(=O)(=O)c3cc(F)ccc3F)CC2)cc1C
→ 14.6	21.7
CCOc1ccc(-c2cc(C(=O)NC(C)c3ccc(F)cc3)c3ccccc3n2)cc1 (centres undefined)
→ -1.2	8.2
CC(c1ccccc1)N(Cc1nc(C(=O)NCCN(C)C)co1)Cc1ccccc1C(F)(F)F (centres undefined)
→ 22.1	40.9
Cc1cc(OC(=O)C(C)C)c([N+](=O)[O-])c(=O)[nH]1
→ 4.4	3.1
CS(=O)(=O)Cc1ccc(C(=O)NCCCNc2ccccn2)cc1
→ 9.7	6.8
CC(=O)Nc1ccc(SCC(=O)N2CCN(C(=O)c3cccs3)CC2)cc1
→ 5.5	2.3
COc1ccc(S(=O)(=O)NCCn2nc(-c3ccncc3)ccc2=O)cc1F
→ -8.8	-9.5
NC(=O)CCSc1nc2ccccc2c(=O)n1CCCc1ccccc1
→ 0.3	5.1
Cc1ccc(C)n1-n1c(C)nc2sc3c(c2c1=O)CCC(C)C3 (centres undefined)
→ -2.7	-6.3
CC(Sc1nnc(-c2ccccc2)n1-c1ccccc1)C(=O)NC1CC1 (centres undefined)
→ 3.7	1.5
CCCN(Cc1ccsc1)Cc1ccc(C(O)(c2ccccc2)c2ccccc2)o1
→ 7.7	10.4
CC(C)NC(=O)N(Cc1nccn1Cc1cccc(Cl)c1)CC1CC1
→ 2.5	2.4
O=C(NCCC1CCCO1)Nc1cccc(COCC2CCCCO2)c1 (centres undefined)
→ 0.1	0.0
Nc1cccc2c([N+](=O)[O-])cccc12
→ 4.8	4.1
O=C(Nc1ccccc1Cn1cncn1)C1CCN(C2CCCCC2)C1 (centres undefined)
→ -0.3	-2.4
COC(=O)CC1CN(C(C)C(=O)NC(C)(C)C)CCO1 (centres undefined)
→ 3.1	3.5
